Assay outcomes (PubChem BioAssay)
CSC inhib: cancer stem cell viability inhibitors, primary screen, luminescence. cancer stem cell-like cells viability. actives 1.1% (n = 300,000). inhibition, % at 7.5 µM. AID 2717, 2010;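 active = mean at 75% or more and at least half the replicates too; tested in HMLE shEcad cells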;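 note: 0% = median of negative and 100% = median of positive control wells; the first replicate is given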
UUG fidelity: modulators of yeast start codon fidelity, primary screen, whole organism, S. cerevisiae, single point, plate reader; actives 0.13% (n = 350,000); activity score, % at 18.7 µM; S. cerevisiae UUG-firefly luciferase reporter, luminescence/redox ratio; AID 602363, 2012;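 active = replicate mean at a twofold rise or more, about +100% in these data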;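 note: firefly luciferase made from a UUG start codon reports start codon fidelity; reporter light over untreated wells divided by growth signal over untreated wells; some hits fall short of that in this replicate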
PABP polyA inh: PABP poly(A) RNA binding inhibitors, primary screen, biochemical, fluorescence polarization, uHTS. Polyadenylate-binding protein 1 (Homo sapiens), P11940. inhibition, % at 35 µM. actives 1% (n = 290,000). AID 2014, 2009;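 active = 50% or more with normal probe brightness, or confirmed in later tests; about a fifth of its hits are not listed in these tables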;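 note: calls also rest on retests at 20 µM and on dose response follow-up; controls were probe without protein and protein plus probe with vehicle; some compounds called inactive have numbers as strong as hits; many hits fall short of the cut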
MT1-MMP act inh: blockers of MT1-MMP proenzyme processing, primary screen, HT1080 RFP-PRO-GFP cells, GFP/RFP fluorescence | GFP/RFP ratio fluorescence, overnight; percent of plate control window, DMSO zero | Matrix metalloproteinase-14 (Homo sapiens), P50281 | GFP/RFP ratio change, % at 20 µM | actives 0.061% (n = 360,000) | AID 651647, 2012;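 active = GFP/RFP ratio change of at least 30% with cell ATP level not reduced by more than half and red fluorescence within 50% of control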; note: strong numbers were not always called active
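Read-out: GFP/RFP fluorescence ratio; Test system: RFP-PRO-GFP reporter HT1080 cells; Compound dosing: single-point 20 µM compound, 1% DMSO; Times: overnight compound exposure at 37 °C.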
eIF4H FP inh: human eIF4H binding inhibitors, primary screen, translation initiation inhibitor project, biochemical, uHTS, fluorescence polarization. eIF4H fluorescence polarization binding assay. inhibition, % at 35 µM. actives 0.94% (n = 290,000). AID 2012, 2009;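 active = 50% or more with normal probe brightness, or confirmed in later tests; about a fifth of its hits are not listed in these tables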;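 note: calls also rest on retests at 20 µM and on dose response follow-up; 0% = protein and probe with vehicle and 100% = probe without protein; strong numbers were not always called active; many hits fall short of the cut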
HIV Env fusion: inhibitors of HIV-1 Env-driven cell-cell fusion, primary screen, HeLa-JRFL effector, CEM21 target cells, luciferase; inhibition, % at 12.3 µM; actives 1.1% (n = 360,000);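 active = mean replicate inhibition score of at least 50 and every replicate individually at or above 50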;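 note: 0% = plate neutral controls and 100% = maraviroc near 300 nM; one replicate is shown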
Rce1 inhib: yeast Rce1p protease inhibitors, primary screen, biochemical, fluorescence, cell-free homogeneous; yeast membranes, quenched prenylated peptide cleavage fluorescence; CAAX prenyl protease 2 (Saccharomyces cerevisiae (strain ATCC 204508 / S288c)), Q03530; calls only; actives 0.27% (n = 290,000);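 active = fall in fluorescence gain of 50% or more versus controls, with final raw signal at or below 3038400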;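 note: plate controls were neutral control wells for no effect and wells lacking membranes for full effect; tested at 10 µM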
Target sequence (Q03530 whole entry, looked up): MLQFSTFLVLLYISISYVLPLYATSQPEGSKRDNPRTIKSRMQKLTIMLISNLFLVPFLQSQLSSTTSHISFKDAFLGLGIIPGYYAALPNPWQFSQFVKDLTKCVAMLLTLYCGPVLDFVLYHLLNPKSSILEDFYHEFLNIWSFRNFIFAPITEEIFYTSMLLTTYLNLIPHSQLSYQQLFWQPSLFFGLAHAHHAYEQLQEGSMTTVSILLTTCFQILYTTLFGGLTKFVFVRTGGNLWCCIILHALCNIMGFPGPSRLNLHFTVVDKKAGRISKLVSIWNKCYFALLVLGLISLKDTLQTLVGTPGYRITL
MT1-MMP act inh RFP: also measured in MT1-MMP act inh; calls as there; RFP signal change, %; measured here: RFP expression control read;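 0 = vehicle wells; hits needed this value within 50% of zero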
Starred values were filed as active, the others as inactive; i = inactive; · = no result given; [ ] = another dose, or the depositor's remark.

SMILES	CSC inhib	UUG fidelity	PABP polyA inh	MT1-MMP act inh	MT1-MMP act inh RFP	eIF4H FP inh	HIV Env fusion	Rce1 inhib
O=[N+]([O-])c1ccc(Oc2cccc(C(F)(F)F)c2)nc1	-5	·	5	-1	-2	-3	-4	i
CC(NC(=O)C1CCCO1)c1ccccc1 (stereo not given)	8	-21	2	-6	-4	-11	·	i
C#CCOCCOCCOCCNc1nc(N2CCOCC2)nc(N2CCN(C(=O)[C@H](Cc3cc4ccccc4[nH]3)n3cc([C@@H](N)C(C)CC)nn3)CC2)n1 (stereo not given in full)	-11	4	-3	4	3	-8	19	i
O=C(C1CC1)N1CCc2cc(Br)cc(S(=O)(=O)N3CCOCC3)c21	2	-3	-4	1	-1	7	-39	·
COc1ccc(Nc2nc(N)c(C(=O)c3ccc(F)cc3)s2)cc1	62	5	8	-8	-18	-3	-93	i
NC(CCc1ccccc1)c1csc(NC(=O)Nc2cccc(C(F)(F)F)c2)n1 (stereo not given)	·	-17	·	-52	-36	·	55*	·
O=C(COC(=O)c1ccccc1[N+](=O)[O-])NC(=O)c1ccccc1	3	·	·	-1	-2	·	6	i
COc1ccc(OC)c(S(=O)(=O)n2ccnc2C(C)C)c1	-4	0	11	-3	-3	-3	-1	i
CCOc1ccc(C(=O)CCC(=O)N2CCN(c3ccccc3O)CC2)cc1	17	-19	·	-2	-5	·	·	·
N#Cc1c(Nc2ccccc2)sc(C(=O)C2CC2)c1N	8	·	15	4	3	-2	-6	·
CCOC(=O)CC1Sc2ccccc2NC1=S (stereo not given)	3	-14	1	-3	3	-8	4	i
Cc1ccccc1NC(=O)c1ccccc1N(C)S(=O)(=O)c1ccccc1	0	·	·	-2	1	·	-9	i
CCO[C@H]1OC(C(=O)N2CCN(C)CC2)=C[C@@H](C)[C@@H]1CCCO	1	-13	-5	0	5	-3	15	i
CC1(C)Cc2c(sc3nc4n(-c5ccccc5)c(=O)c(CCC(=O)O)nn4c(=O)c23)CO1	-7	-39	-2	3	1	1	6	i
CN(C(=O)CCN1C(=O)C(C)(C)Nc2ccccc21)c1ccccc1	-16	5	-6	-1	-1	-9	-46	·
COc1ccc(OCC(O)COc2ccc(OC)cc2)cc1	4	-8	0	-1	-2	3	·	i
CN(CCNC(=O)c1cn(C)c2ccc(S(=O)(=O)N3CCCC3)cc2c1=O)CCc1ccccc1	-13	-10	-3	-1	2	-10	·	i
Cc1ccccc1NC(=O)CCNS(=O)(=O)c1cccc2nsnc12	4	-6	2	2	1	-4	8	i
CN(C)S(=O)(=O)c1ccc(C(=O)OCc2ccc(C#N)cc2)cc1	3	-10	5	3	-1	-10	·	i
Cc1cc(CN2CCN(CC(=O)Nc3cc(C(F)(F)F)ccc3-n3cncn3)CC2)no1	·	-6	·	-4	-5	·	-2	·
CC(=O)N(c1cccc(Cl)c1)c1nc(C)cc(C)c1C#N	-4	-13	-14	-3	2	0	1	i
COc1ccc(C(=O)NCCNc2nc3c(C)cccc3cc2C#N)cc1OC	-1	-9	7	3	-7	-5	-5	i
O=C(NCc1cccnc1)c1sc2cc(Cl)ccc2c1Cl	-4	-22	-3	1	-5	-13	-1	i
O=C(Nc1cccc2c1CCCC2)c1cc(C2CCCCN2C(=O)c2cccs2)on1 (stereo not given)	·	12	·	-7	-11	·	15	·
CCC12CSc3nc(Cl)ccc3N1C(=O)C(=O)N2C (stereo not given)	·	-24	-3	3	5	1	2	i
COc1ccccc1-c1ccc(=O)n(CC(=O)NC2CCc3ccccc32)n1 (stereo not given)	-1	1	-7	3	0	-2	-23	i
CC(=O)OCC(=O)c1ccc2ccn(C(C)=O)c2c1	·	-10	12	3	6	-8	-73	i
CCOc1ccc(CCNC(=O)CN2CCN(Cc3ccccc3F)C2=O)cc1OCC	-1	6	-3	0	-3	-7	-52	i
CCn1c(SC)nnc1C1CCCN(CC(=O)Nc2ccccc2N2CCOCC2)C1 (stereo not given)	-11	-12	16	-4	-2	3	8	i
CCOC(=O)c1ccc(NC(=S)NCCCN2CCCCC2)cc1	-10	-8	12	-2	-3	-17	6	i
CN(C)S(=O)(=O)c1cccc(C(=O)OCC(=O)c2c(N)n(C)c(=O)n(C)c2=O)c1	-14	-13	18	3	4	8	-3	i
CC1CN(C)C(C)CC1NCc1ccc2c(c1)OCO2 (stereo not given)	-7	-20	-2	-4	4	-6	-5	i
Cc1ccc(C(=O)ONc2ccc(N=NC(=O)c3ccccc3O)cc2)cc1	78*	-9	7	-2	0	16	-21	i
CC1Cc2ccccc2N1C(=O)/C=C/c1cccc(F)c1 (stereo not given)	·	-8	1	-1	-4	-1	-142	i
Cc1ccccc1S(=O)(=O)Cc1ccc(C(=O)NC(C)c2ccccc2)o1 (stereo not given)	0	·	3	1	1	2	0	i
O=C(NCC[C@H]1CC[C@@H](NC(=O)C2CCC2)[C@@H](CO)O1)c1cc(Cl)cc(Cl)c1	·	15	·	-1	3	·	-15[16.7 µM]	·
O=S(=O)(c1ccccc1C(F)(F)F)N1C=CC(C(F)(F)F)=NCC1	·	-12	5	-1	-2	-9	2	i
CCOC(=O)C1CCCN(S(=O)(=O)c2ccc(S(=O)(=O)N3CCCC3)cc2)C1 (stereo not given)	0	0	·	-2	-24	·	-1	i
CCCCCCn1c(N2CCN(c3cccc(Cl)c3)CC2)nc2c1c(=O)[nH]c(=O)n2C	24	-1	-11	4	2	0	·	i
COc1ccc(-n2c(SCC(=O)Nc3nc(C)cs3)nnc2-c2ccoc2C)cc1	-5	-7	34	2	5	-1	-65	i
Cc1ccc(N(CC(=O)N2CCCCCC2)S(C)(=O)=O)c(C)c1	·	-21	·	3	5	·	-11	·
Cc1cccc(OC(C)C(=O)Nc2cc(S(=O)(=O)N3CCCCC3)ccc2C)c1 (stereo not given)	-1	8	·	7	-5	·	18	·
Cc1ccc(C(=O)N2CCOCC2)cc1S(=O)(=O)N1CCCCC1	4	-14	8	-7	-2	-2	-16	i
Cc1n[nH]c(C)c1Sc1ccccc1N	-6	·	0	-1	1	7	-1	i
Brc1ccc(N=Cc2ccccn2)cc1	19	-14	8	-2	-1	2	-10	i
COc1cccc(C2=NOC(C(=O)NCc3ccc(F)cc3)C2)c1 (stereo not given)	·	14	-5	5	3	0	-12	i
COc1ccccc1C(=O)NC(=O)COC(=O)c1ccc([N+](=O)[O-])cc1	-4	·	·	-2	1	·	-5	i
CC(C)c1ncc(C(O)c2cccc3ccccc23)n1C (stereo not given)	-7	8	-2	4	1	-6	·	i

Rewritten with bars between the fields: part of the list above
canonical_smiles | CSC inhib | UUG fidelity | PABP polyA inh | MT1-MMP act inh | MT1-MMP act inh RFP | eIF4H FP inh | HIV Env fusion | Rce1 inhib
CC(=O)OCC(=O)c1ccc2ccn(C(C)=O)c2c1 | · | -10 | 12 | 3 | 6 | -8 | -73 | i
O=S(=O)(c1ccccc1C(F)(F)F)N1C=CC(C(F)(F)F)=NCC1 | · | -12 | 5 | -1 | -2 | -9 | 2 | i
CN(C)S(=O)(=O)c1cccc(C(=O)OCC(=O)c2c(N)n(C)c(=O)n(C)c2=O)c1 | -14 | -13 | 18 | 3 | 4 | 8 | -3 | i

Continued:
SMILES	CSC inhib	UUG fidelity	PABP polyA inh	MT1-MMP act inh	MT1-MMP act inh RFP	eIF4H FP inh	HIV Env fusion	Rce1 inhib
COCc1ccc(O)c2ncccc12	26	-40	10	5	-1	9	·	i
CC(C)(C)OC(=O)NCCCCc1cn(CC(=O)N2CCN(C(=O)OC(C)(C)C)CC2)nn1	-4	-4	-2	4	3	-11	-4	i
CCn1c(-c2ccc(F)cc2)cnc1SCC(=O)N1CCc2ccccc21	17	·	0	·	·	5	·	i
C1CC1C(=NN=C(C1CC1)C1CC1)C1CC1	·	-11	·	1	1	·	10	·
CCCCN(C(=O)c1nn(C)c(=O)c2ccccc12)c1c(N)n(CCC)c(=O)[nH]c1=O	-2	-9	·	-3	1	·	5	·
COc1ccc(C(=O)COC(=O)CCS(=O)(=O)c2ccc(C)cc2)c(OC)c1	-12	·	·	-3	0	·	·	i
CC(=O)c1ccc(N2C(=NC(=O)COc3ccccc3)SC3CS(=O)(=O)CC32)cc1 (stereo not given)	1	-2	-4	-1	3	-7	2	i
CCC1=C(OC(=O)N(CC)CC)N2C(=O)OC(=NCCc3c[nH]c4ccccc34)[C@]2(Cc2ccccc2)[C@H]2C1=CC[C@H]1C(=O)N(CC)C(=O)[C@H]12	13	1	0	-7	-3	-15	-22	i
COc1ccc(CC(=O)OC(C)C(=O)c2ccc(C)cc2)cc1 (stereo not given)	15	4	4	-1	-1	3	2	i
COCCCN1C(=O)C(=O)/C(=C(/O)c2ccc(S(=O)(=O)N3CCCCC3)cc2)C1c1ccc(O)c(OC)c1 (stereo not given)	-13	18	·	1	2	·	4	i
N#Cc1ccc(CSc2nnc3ccccn23)cc1	-13	-19	-11	5	5	-4	17	i
CN(C)N1C(=O)/C(=C/c2ccco2)SC1=Nc1ccccc1	-12	·	·	-3	1	·	24	i
CCOC(=O)c1[nH]c(C)c(C(=O)OCC(=O)N2CC(=O)Nc3ccccc32)c1C	-3	-3	0	3	-2	-4	-4	i
CCC(CC)C1C(C#N)=C(N)Oc2n[nH]c(C)c21 (stereo not given)	12	4	-8	-4	-5	0	-12	i
O=C(COc1ccccc1)NCC(=O)N/N=C/c1ccco1	13	·	-1	2	3	4	-27	i
CC(C)OC(=O)CN1C(=O)S/C(=C/c2ccc(N3CCCCC3)o2)C1=O	41	-6	32	-73	9	27	·	i
Cc1ccc(S(=O)(=O)NCCNc2ccc([N+](=O)[O-])cc2)cc1	16	-3	-14	4	1	9	0	i
COc1cccc(C(NC(C)=O)c2nc(/C=C/c3ccccc3)cs2)c1 (stereo not given)	·	-31	·	-3	2	·	26	·
O=C(CSc1nc2[nH]ncc2c(=O)n1-c1ccccc1Cl)N1CCCC1	-1	·	4	-4	-2	-11	-18	i
O=C(NCCc1ccccc1)C(=O)NCC1(c2ccccc2)CCCC1	-14	-17	-4	5	2	-5	-35	i
C#CCN(C(=O)c1ccc(OC)c(OC2CCN(C(C)C)CC2)c1)C1CCCCC1	-9	-15	-16	0	0	0	2	i
CC(C)CSc1nc2ccccc2n1CC(N)=O	-3	-5	-5	4	3	0	-18	i
Cc1ccc(Oc2ncc(CN3CC(C)OC(C)C3)s2)cc1 (stereo not given)	-7	1	-6	-4	-2	-6	-22	i
CCOCCc1nnc(NC(=O)CSc2ccccc2)s1	-12	-11	-5	-9	3	5	·	i
COC(=O)CCCC(=O)N1CCCC(CNS(=O)(=O)c2ccc(OC)cc2)C1 (stereo not given)	-5	·	6	3	7	-15	4	i
Cc1cccc(C)c1Cn1c(C)c(C(=O)NCc2ccc(C#N)cc2)sc1=O	·	-12	·	-3	-16	·	-42	·
COCCNC(=O)C(OC(=O)c1ccco1)c1ccccc1F (stereo not given)	-14	-6	-7	-2	0	0	-12	i
CC(C)(C)N(Cc1nc(-c2ccccc2)no1)C(=O)c1ccc2c(c1)OCO2	1	-4	-6	-7	-1	-8	13	i
O=C(O)C1C2C=CC(C2)C1C(=O)N1CCc2ccccc21 (stereo not given)	-8	·	16	-1	4	-2	-28	i
Cc1ccc(S(=O)(=O)N2[C@@H](c3cccc(Cl)c3)C(C(=O)OC(C)(C)C)=CC[C@H]2c2ccc(C(C)C)cc2)cc1	·	-15	·	-7	-20	·	-7	·
O=C(CSc1nc2ccccc2o1)NCC(=O)c1ccccc1	8	-10	-6	4	-3	0	·	i

Not all compounds are listed. The share of hits here may be higher or lower than overall.
